Source: PubChem
MLL AF4-AF9 inh: inhibitors of AF4 peptide binding to AF9, primary screen, biochemical, AlphaScreen, biotin-AF4 peptide, FLAG-AF9, single point | 350,000 tested, 0.47% active | inhibition, % at 10 µM | Protein AF-9 (Homo sapiens), P42568 | AID 651704, 2012;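 active = every replicate reaching a set inhibition limit, whatever the replicate mean, cut at about 25% in these data; inconclusive = mean inhibition reaches that limit but some replicates miss it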;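 also: 0% = plate neutral control median and 100% = total signal loss; the record names both 10 and 1 µM as test concentration; the first replicate is given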
Target sequence (P42568 whole entry, looked up): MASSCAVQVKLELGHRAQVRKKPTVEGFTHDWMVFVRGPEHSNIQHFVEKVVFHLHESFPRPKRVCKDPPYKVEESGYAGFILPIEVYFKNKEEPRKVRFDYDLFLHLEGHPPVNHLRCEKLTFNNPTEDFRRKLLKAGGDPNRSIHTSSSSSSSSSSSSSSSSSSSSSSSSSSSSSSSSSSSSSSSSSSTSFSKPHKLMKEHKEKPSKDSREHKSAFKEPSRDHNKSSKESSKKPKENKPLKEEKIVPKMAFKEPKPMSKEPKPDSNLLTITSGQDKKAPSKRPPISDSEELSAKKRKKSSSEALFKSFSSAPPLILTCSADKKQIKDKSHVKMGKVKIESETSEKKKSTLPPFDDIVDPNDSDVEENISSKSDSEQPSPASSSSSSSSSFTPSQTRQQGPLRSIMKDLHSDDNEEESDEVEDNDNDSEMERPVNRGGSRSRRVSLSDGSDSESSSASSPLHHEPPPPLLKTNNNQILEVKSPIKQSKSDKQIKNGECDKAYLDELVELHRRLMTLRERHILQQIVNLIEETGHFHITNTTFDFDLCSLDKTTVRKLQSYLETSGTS
Bfl-1 A1 inh: caspase 3/7 activation in MEF A1-2A-BIM cells, primary screen, A1 inhibitor project, cell-based, luminescence, HTS. Caspase-Glo 3/7 luminescence, 3 h; percent of clofoctol response, vehicle zero. caspase activation, % (concentration not given with the values). AID 2462, 2010. 330,000 tested, 0.066% active;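 active = over half of replicate activation scores above 10%, or exactly half above 10 with the replicate mean above 10; inconclusive = replicate mean below 10 yet half the replicates above 10; inactive = over half of replicates below 10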;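 also: wells of about 30 µL received 50 nL stock; many hits fall short of the cut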
Calb FLC: C. albicans growth inhibition with fluconazole, primary screen, CaCi-2 strain, Alamar Blue fluorescence. C. albicans CaCi-2 (fluconazole-resistant clinical isolate) + fluconazole, 48 h. growth inhibition, % (no concentration beside the values). 300,000 tested, 0.57% active. AID 1979, 2009;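 active = most replicates above 75%; inconclusive = exactly half above 75%; inactive = most below 75%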;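 also: all wells also contain fluconazole at 8 µg/ml as a sub-toxic cotreatment; 0% = median of DMSO wells and 100% = median of geldanamycin control wells; wells of about 8 µL received 7.5 nL stock; the first replicate is given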
T cruzi inh: inhibitors of intracellular T. cruzi growth, primary screen, luminescence, NIH3T3 host cells; T. cruzi beta-gal in NIH3T3, 90 h; inhibition, % (no concentration beside the values); 300,000 tested, 1.4% active;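 active = mean inhibition across valid replicates above about 55%, limit read from the data; inconclusive = mean below that limit but half or more replicates reach it; inactive = mean below it, under half of replicates reach it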;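 also: signal also drops with host cell toxicity which is not excluded here; 0% = plate median of DMSO wells and 100% = zero luminescence signal; higher percent means less beta-gal luminescence so fewer parasites; stock transfer was 50 nL into about 50 µL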
Vif TR-FRET: inhibitors of Vif binding to APOBEC3G peptide, primary screen, biochemical, TR-FRET, GST-Vif 1-94, biotin-A3G peptide, dose response retest (AID 1117319); Virion infectivity factor (Human immunodeficiency virus type 1 group M subtype B (isolate …; inhibition, %, or IC50 in µM where a hit was titrated; TR-FRET GST-Vif / biotin-A3G peptide binding; higher % means a stronger effect; test concentration not given here; strong numbers were not always called active; 260,000 tested, 0.57% active;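 active = above the screen mean plus three standard deviations and confirmed in dose response; inconclusive = results disagree or hit not tested in dose response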;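 also: Vif residues 1-94 fused to GST binding biotinylated APOBEC3G peptide 110-148; 0% = full assay without inhibitor and 100% = GST in place of GST-Vif; retest series ran down from 100 µM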
Beta apoptosis: inhibitors of cytokine-induced beta cell apoptosis, primary screen, luminescence; protection from apoptosis, % (concentration not given with the values); INS-1E cytokine-induced death, ATP luminescence, 48 h; percent of positive-control rescue, neutral wells zero; AID 435005, 2010; 300,000 tested, 0.8% active;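 active = all replicates at 75% or more, or half of them and the mean; inconclusive = half reach 75% but not the mean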;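 also: 0% = cytokine-treated negative control wells and 100% = positive control rescue; higher means more ATP so stronger rescue from cytokine killing; wells of about 40 µL received 100 nL stock; the first replicate is given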
RanGTP-Imp inh: inhibitors of RanGTP-importin-beta interaction, primary screen, biochemical, FRET, CFP-Ran, YFP-importin-beta, homogeneous; cell-free CFP-Ran/YFP-importin-beta FRET ratio; 300,000 tested, 1.1% active; inhibition, % (concentration not given with the values); Ran GTPase (GTP-bound) - importin-beta complex; AID 2216, 2009;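 active = most replicates above 15%; inconclusive = exactly half above 15%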;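 also: 0% = DMSO wells and 100% = Ran loaded with GDP instead of GTP; wells of about 40 µL received 100 nL stock; the first replicate is given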
rRNA inh HTS: reduced GFP signal of wild-type E. coli, primary screen, bacterial rRNA inhibitor project, GFP/RFP fluorescence, OD600, single point. E. coli WT GFP vs humanized-ribosome RFP mutants, 24 h; stronger effect = lower value; DMSO median 0, no signal -100. GFP signal change (wild-type ribosome), % (no concentration beside the values). 350,000 tested, 1.6% active. AID 720706, 2013;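 active = significant combined selectivity score with lowered wild-type GFP, culture density cut under 30%, mutant RFP and density less affected; inactive = any of these conditions unmet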; also: one replicate is shown; some compounds called inactive have numbers as strong as hits
rRNA inh HTS OD600: also measured in rRNA inh HTS; calls as there; OD600 change, %; measured here: OD600 growth;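 optical density of the mix in the first replicate; 0 = DMSO median and -100 = no signal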
rRNA inh HTS RFP: also measured in rRNA inh HTS; calls as there; RFP signal change, %; measured here: RFP humanized mutant strains;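 first replicate; 0 = DMSO median and -100 = no signal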
* marks the source's active call; other numbers are inactive results; ? = inconclusive; nt = not tested or not shown. Some of the compounds tested; the hit share may differ from the screen's.

(1) Cc1ccc(S(=O)(=O)Nc2cccc(C(=O)NCC(C)(C)N3CCOCC3)c2)cc1F
(2) O=C1CC(c2ccccc2)Cc2nc3ncnn3cc21 (stereo unspecified)
(3) O=C(CNC(=O)Cc1ccccc1)NCC(=O)N1CCN(C(c2ccccc2)c2ccccc2)CC1
(4) COc1ccc2nc(SCC(=O)Nc3ccccc3C#N)[nH]c2c1
(5) CCn1c(SCC(=O)N2CCCC2)nc2ccccc21
(6) COc1cc(NC(=O)CCn2c(=O)oc3ccccc32)cc(OC)c1OC
(7) O=C(COc1cccc(Br)c1)N/N=C/C(=O)c1ccccc1
(8) Cc1ccc(C(C(=O)NCC2CCCO2)N(Cc2ccccc2)C(=O)c2ccc(-c3ccccc3)[nH]2)o1 (stereo unspecified)
Assay by compound | 1 | 2 | 3 | 4 | 5 | 6 | 7 | 8
MLL AF4-AF9 inh | -24 | -82 | -16 | nt | -0.9 | ? | 0.6 | nt
Bfl-1 A1 inh | ? | -0.2 | 0.1 | -0.2 | 0.7 | 0.1 | 0.8 | -0.4
Calb FLC | 6 | 0 | -2 | -1 | 3 | -5 | -42 | 16
T cruzi inh | 1 | -5 | 2 | 6 | -7 | 5 | -15 | 34
Vif TR-FRET | 7% | 4% | 0% | 3% | nt | nt | 3% | 3%
Beta apoptosis | -2 | -4 | 7 | -1 | -2 | -1 | -6 | -5
RanGTP-Imp inh | 1.3 | -61 | -2.9 | 3.2 | -3.8 | -0.5 | 1.4 | -1.6
rRNA inh HTS | 8 | 4 | 1 | nt | 14 | 1 | -22 | nt
rRNA inh HTS OD600 | 14 | -10 | 1 | nt | 14 | 5 | -19 | nt
rRNA inh HTS RFP | 0.4 | -3.9 | 0.6 | nt | -0.2 | 1.4 | 0.4 | nt

(9) CCCn1c(N)c(C(=O)CN2CCN(S(=O)(=O)c3cccc(Cl)c3)CC2)c(=O)[nH]c1=O
(10) NC(=O)CC(NC(=O)Cc1cccc2ccccc12)c1ccc(NCCOc2ccccc2)c([N+](=O)[O-])c1 (stereo unspecified)
(11) COc1cccc(C(C)NC(=O)C2CCCO2)c1 (stereo unspecified)
(12) CCCCN(C(=O)c1ccc([N+](=O)[O-])o1)c1c(N)n(CC(C)C)c(=O)[nH]c1=O
(13) CCc1ccc(-c2cnc3ccccc3n2)cc1NC(=O)CNC(=O)c1ccccc1
(14) O=C(COC(=O)/C=C/c1ccc(Cl)cc1)Nc1cccc(S(=O)(=O)NC2=NCCCCC2)c1
(15) O=C(CCN1C(=O)[C@H]2CC=CC[C@H]2C1=O)NCc1nc(-c2ccc(Cl)cc2)no1
(16) Cc1cccnc1NC(=O)COc1ccc2c(c1)CCC2
Assay by compound | 9 | 10 | 11 | 12 | 13 | 14 | 15 | 16
MLL AF4-AF9 inh | 1.0 | 7.3 | 0.8 | 2.5 | 0.1 | 2.3 | -3.3 | -0.5
Bfl-1 A1 inh | 1.4 | 0.1 | -0.6 | -0.1 | -1.0 | 0.7 | 0.9 | -2.1
Calb FLC | nt | 11 | 0 | 28 | 13 | nt | 2 | -4
T cruzi inh | nt | 8 | 0 | ? | 6 | nt | 0 | 16
Vif TR-FRET | nt | nt | nt | nt | 0% | nt | -6% | nt
Beta apoptosis | -1 | 6 | -6 | -6 | -2 | -7 | 1 | -8
RanGTP-Imp inh | nt | -1.1 | 1.4 | ? | 5.5 | nt | 1.3 | nt
rRNA inh HTS | 0 | 2 | 15 | 11 | 11 | -20* | 7 | 10
rRNA inh HTS OD600 | 5 | 8 | 6 | 9 | 12 | -10* | -5 | 8
rRNA inh HTS RFP | 2.1 | -17 | 3.8 | 0.9 | -0.8 | 4.8* | 2.2 | 2.5

(17) O=C(CNS(=O)(=O)c1ccc(Cl)cc1)N/N=C/c1ccco1
(18) O=C(O)CSC1CC(=O)N(c2ccc(Cl)c(Cl)c2)C1=O (stereo unspecified)
(19) C/C(N)=C(/C#N)C(=O)COC(=O)CSc1ccccc1
(20) COc1ccc(-c2cc(-c3ccc(Cl)cc3)c(C#N)c(SCC(=O)O)n2)cc1
(21) CCOC(=O)c1c(-c2ccc(-c3ccccc3)cc2)csc1NC(=O)CNCCN(C)C
(22) Cc1nn(Cc2cccc(Oc3ccccc3)c2)c(C)c1NC(=O)NC12CC3CC(CC(C3)C1)C2
(23) CC(C)(CNC(=O)Cc1ccc(Cl)cc1Cl)N1CCOCC1
(24) CNc1cc(N2CCN(S(=O)(=O)N(C)C)CC2)ccc1[N+](=O)[O-]
Assay by compound | 17 | 18 | 19 | 20 | 21 | 22 | 23 | 24
MLL AF4-AF9 inh | -1.3 | nt | nt | -49 | 31* | nt | 0.8 | 2.0
Bfl-1 A1 inh | -0.5 | 0.4 | -0.1 | -0.3 | 0.1 | 0.0 | 0.5 | 0.3
Calb FLC | 1 | -4 | -4 | ? | 4 | -5 | -4 | ?
T cruzi inh | -3 | -11 | -13 | 19 | 47 | 57* | 14 | 7
Vif TR-FRET | 5% | 0% | -2% | -6% | -12% | -6% | 3% | -11%
Beta apoptosis | 0 | -20 | 1 | 0 | 55 | 12 | 1 | -1
RanGTP-Imp inh | 3.5 | 4.4 | -3.4 | -3.8 | -1.5 | -2.5 | -1.6 | 3.6
rRNA inh HTS | 8 | nt | nt | -6 | -59 | nt | 12 | 10
rRNA inh HTS OD600 | 6 | nt | nt | 2 | -81 | nt | 7 | 10
rRNA inh HTS RFP | 4.9 | nt | nt | -0.3 | -19 | nt | 1.4 | 0.1

(25) O=C(CCc1cn2ccccc2n1)NC1CCCc2c1cnn2-c1ccccc1F (stereo unspecified)
(26) Cc1nc2ccccc2c2oc(C(=O)N3CCc4ccccc4C3)cc12
(27) CCN(C(=O)c1cc2ccccc2oc1=O)c1ccccc1
(28) O=S(=O)(Nc1nc2c(s1)CCCC2)c1ccc(F)cc1
Assay by compound | 25 | 26 | 27 | 28
MLL AF4-AF9 inh | -4.1 | 1.0 | nt | 4.3
Bfl-1 A1 inh | -0.7 | -0.7 | -0.4 | 0.6
Calb FLC | -4 | 42 | -7 | 35
T cruzi inh | -9 | 0 | -7 | 0
Vif TR-FRET | -1% | 2% | 2% | 0%
Beta apoptosis | -9 | 6 | -2 | -3
RanGTP-Imp inh | ? | -5.7 | -0.9 | 2.1
rRNA inh HTS | 2 | -5 | nt | 2
rRNA inh HTS OD600 | -4 | -11 | nt | -9
rRNA inh HTS RFP | -0.2 | -1.3 | nt | 19
